# Biofilm kill mix = clotrimazole potentiators killing C. albicans biofilm, primary screen, 4-compound mixtures; C. albicans biofilm persisters + clotrimazole, fluorescence viability; primary screen in compound mixtures of four per well; inhibition, % at 7.6 µM; 120,000 tested, 0.02% active;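 active = inhibition above 30.3% in the primary screen of four-compound pools, then above 30% when the compound was retested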;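 note: compounds exposed to preformed 24 h biofilms for 48 h; the number belongs to the whole pool; some results filed as inactive read as strong as hits; inactives centre near 12; 0% = biofilm with clotrimazole alone and 100% = kill control; retested singly at about 60 µM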
#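 Incubation: 24 h biofilm formation, then 48 h compound exposure, 37 °C | Material: C. albicans biofilms | Buffer or medium: RPMI/MOPS medium, pH 7.0 | Measured by: 2-h Alamar Blue fluorescence, 535/590 nm excitation/emission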
# Active calls of the source: *. The list is partial, so the mix of outcomes need not match the whole.
SMILES,Biofilm kill mix
Cc1cccc(/C(N)=N/OC(=O)CCC2CCCCC2)c1,13
Cc1ccc(NNC(=O)c2c(F)cccc2Cl)cc1C,1
Nc1ccccc1SCC(=O)Nc1nccs1,7
Clc1nc2ccccc2nc1-c1ccccc1,7
COc1ccccc1NS(=O)(=O)c1ccc(S(=O)(=O)N2CCOCC2)cc1,13
O=C(O)c1ccc(Cn2c(SCc3cc(=O)n4cc(Br)ccc4n3)nc3ccsc3c2=O)cc1,9
COC(=O)c1ccccc1SC(CC(=O)c1ccccc1)c1ccc(F)cc1 (centres undefined),19
O=C(NCc1ccco1)/C(=C\c1cccs1)NC(=O)c1cccs1,13
C#CCOc1nc(Nc2cccc([N+](=O)[O-])c2)nc(OCC#C)n1,8
CCOC(=O)c1ccc(S(=O)(=O)N2CCN(C(=O)c3cc(=O)c4ccccc4o3)CC2)cc1,19
COc1ccc(C(=O)C[n+]2cn(C(F)F)c3ccccc32)c(F)c1,10
COc1cccc(C(=O)Nc2sc3c(c2C#N)CCN(C(C)=O)C3)c1,12
CC/C(O)=C1\C(=O)CCCC1=NCc1nc2ccccc2[nH]1,13
N/C(=N\OC(=O)c1cc(Cl)ccc1Cl)c1ccccn1,25
CC(C)(C)OC(=O)N1CCN(c2ccc([N+](=O)[O-])cc2)CC1,13
O=C(Nc1ccc(F)c(F)c1)c1ccccc1-c1ccccc1,13
Cc1ccccc1NC(=S)NCCc1c[nH]c2ccccc12,13
CCCC(=O)NC(c1ccco1)c1cc([N+](=O)[O-])c2cccnc2c1O (centres undefined),30
O=C1CCCC(O)=C1N=Nc1ccc2ncsc2c1,14
c1cnc(N2CCN(Cc3ccc4c(c3)OCO4)CC2)cn1,22
COc1ccc(CCNC(=O)CCCOc2ccc(C)cc2)cc1OC,5
CC(C(O)c1ccc(O)cc1)N1CCC(Cc2ccccc2)CC1 (centres undefined),3
Cc1cc(C)n(C2CCCCC2OC(=O)CCc2ccccc2)n1 (centres undefined),8
O=c1c(C(c2ccc(F)cc2)c2c(O)nc3n(c2=O)CCCS3)c(O)nc2n1CCCS2,20
CC1(C)CC(=O)C2=C(C1)C(c1cn(-c3ccccc3)nc1-c1ccccc1)C(C#N)=C(N)O2 (centres undefined),18
SMILES,Biofilm kill mix
O=C(NCc1cccs1)c1nc(-c2cccs2)no1,-2
Cc1ccccc1NC(=O)CSC1=NCCN1,16
Cc1nc2ccc(NC(=O)COc3ccccc3F)cc2s1,10
O=C(CSc1ncccc1C(=O)O)c1ccccc1F,-1
COc1ccc(O[C@H]2C=C[C@@H](c3ccccc3)O[C@@H]2CO/N=C(\C)CCN2CCc3nc(-c4ccccc4)c(-c4ccccc4)cc3C2)cc1,20
CC1CN(CCOc2ccc(Cl)cc2Cl)CC(C)O1 (centres undefined),6
Cc1ccsc1CN(C)Cc1nc(C2CC2)no1,18
CC1N(O)C(C)(C)C(c2ccccc2)=[N+]1[O-] (centres undefined),5
O=C(O)Cc1csc(NC(=O)CSc2nnnn2-c2ccc(O)cc2)n1,13
CC(NC(=O)Cc1ccccc1)c1cc2c(cc1Br)OCCCO2 (centres undefined),7
Cc1c(C)c2ccc(OS(C)(=O)=O)cc2oc1=O,19
CC(=O)N(c1nc(CCl)cs1)c1ccc(C)cc1C,5
CCn1c(=O)cc(SCC(=O)NCCCN2CCC(C)CC2)c2ccccc21,2
CCNC(=O)NC(=O)C(C)OC(=O)C1CCN(S(=O)(=O)c2ccccc2F)CC1 (centres undefined),4
Cc1cc(C(=O)N/N=C/c2ccco2)n[nH]1,11
C=CCNC(=S)Nc1ccc(N(C)C)cc1,19
C=C1c2ccccc2NC(=O)N1c1ccc(OC)cc1,6
CC(C)Cn1c(SCC(=O)N2CCN(C(=O)c3ccco3)CC2)nc2ccccc2c1=O,6
COC(=O)C(C)Sc1nc2c(c(=O)n(C)c(=O)n2C)n1CCC(C)C (centres undefined),12
COC(=O)c1cccc(NC(=S)N2CCOCC2)c1,8
CC(=O)c1cccc(NC(=S)NC(=O)c2ccc(C)cc2)c1,17
C=CCC1Cc2c(Br)cccc2C(CC=C)N1 (centres undefined),8
O=C(O)CCC(=O)N1N=C(c2c(-c3ccccc3)c3cc(Cl)ccc3[nH]c2=O)CC1c1cccs1 (centres undefined),13
O=C(NCc1ccccc1)c1cc[n+](CC(=O)c2cccs2)cc1,29
O=C(NCc1ccncc1)c1cn(-c2ccccc2)nc1-c1cccnc1,9

# Three structures from above, ordered by molar mass, descending.
SMILES,Biofilm kill mix
CC(C)Cn1c(SCC(=O)N2CCN(C(=O)c3ccco3)CC2)nc2ccccc2c1=O,6
CC1CN(CCOc2ccc(Cl)cc2Cl)CC(C)O1 (centres undefined),6
Cc1cc(C(=O)N/N=C/c2ccco2)n[nH]1,11

# The listing continues.
SMILES,Biofilm kill mix
COc1ccc(-c2cn3ccc4ccccc4c3n2)cc1,19
C=CCNC(=O)c1ccc2nccnc2c1,8
CCC(C)C(NC(N)=O)C(=O)Nc1ccc(C)c(Cl)c1 (centres undefined),1
CCC(C)(C)NC(=O)C(c1ccncc1)N(C(=O)c1sc(C)nc1C)c1ccc(C)cc1 (centres undefined),12
CCc1nc2c(c(=O)c3ccccc3n2C)c(=O)n1C1CCCCCC1,15
Cc1cccc(OCC(=O)Nc2ccc(N3CCN(C(=O)c4ccccc4)CC3)cc2)c1,11
CN(Cc1ccccc1)C(=O)c1c[nH]c2ccc(S(=O)(=O)N3CCOCC3)cc2c1=O,-1
O=C(Nc1ccc(Oc2cccnc2)cc1)c1cccc([N+](=O)[O-])c1,10
Cc1ccc(NC(=O)CSCC(=O)NCCc2ccccn2)c(C)c1,9
O=C(O)CCC(=O)Nc1cccc(C(=O)Nc2ccc(Br)cc2)c1,16
Cc1nn(C)cc1C(C(=O)NC1CCCCC1)N(C(=O)Cc1cccs1)c1ccc(F)cc1 (centres undefined),7
FC(F)(F)c1cccc(NCc2n[nH]c(=S)n2C2CCCCC2)c1,12
C[C@H](NC(=O)c1nc[nH]c1C(=O)N[C@@H](CCCCNC(=O)OC(C)(C)C)C(=O)OC(C)(C)C)C(=O)OC(C)(C)C,3
CCOC(=O)C1(CCc2ccccc2)CCN(C(=O)[C@@H]2C[C@@H](C)NC(=S)N2)CC1,2
Nn1c(SCC(=O)Nc2ccc(S(N)(=O)=O)cc2)nnc1C(F)(F)F,10
Cc1ccc2nc(NC(=O)CCn3cccc3)sc2c1,8
O=C(N/N=C/C(Cl)=C/c1ccc([N+](=O)[O-])cc1)C(=O)Nc1ccccc1C(=O)O,17
CC(C)NC(=O)C(=O)NCCCN1CCOCC1,29
Cc1c(NC(=O)CCC(=O)N2CCOCC2)c(=O)n(-c2ccccc2)n1C,9
COc1ccc(N2Cc3ccccc3C2=NC(=O)c2cncc(Br)c2)cc1,9
CC(=O)c1ccc(S(=O)(=O)N2CCN(CC#N)CC2)cc1,22
O=C(NCCc1ccccc1)c1ccccc1NC(=O)C1CCCO1 (centres undefined),-2
O=C(CCN1CCN(c2ccccc2)CC1)Nc1ccc(Cl)cc1,8
O=C(c1cc2ccccc2oc1=O)N(Cc1cccc(Br)c1)C1CCS(=O)(=O)C1 (centres undefined),15
OC(COCCOc1ccc(Br)cc1)CN1CCCCC1 (centres undefined),10

# An excerpt from above in order of molar mass, descending.
SMILES,Biofilm kill mix
CCOC(=O)C1(CCc2ccccc2)CCN(C(=O)[C@@H]2C[C@@H](C)NC(=S)N2)CC1,2
COC(=O)c1ccccc1SC(CC(=O)c1ccccc1)c1ccc(F)cc1 (centres undefined),19
O=C(O)Cc1csc(NC(=O)CSc2nnnn2-c2ccc(O)cc2)n1,13
O=C(O)CCC(=O)Nc1cccc(C(=O)Nc2ccc(Br)cc2)c1,16
O=C(NCc1ccco1)/C(=C\c1cccs1)NC(=O)c1cccs1,13
Cc1ccc(NC(=O)CSCC(=O)NCCc2ccccn2)c(C)c1,9
O=C(CCN1CCN(c2ccccc2)CC1)Nc1ccc(Cl)cc1,8
O=C(NCc1ccccc1)c1cc[n+](CC(=O)c2cccs2)cc1,29
O=C(Nc1ccc(Oc2cccnc2)cc1)c1cccc([N+](=O)[O-])c1,10
O=C(Nc1ccc(F)c(F)c1)c1ccccc1-c1ccccc1,13
CC(C)(C)OC(=O)N1CCN(c2ccc([N+](=O)[O-])cc2)CC1,13
CC/C(O)=C1\C(=O)CCCC1=NCc1nc2ccccc2[nH]1,13
Cc1ccc(NNC(=O)c2c(F)cccc2Cl)cc1C,1
C=CCC1Cc2c(Br)cccc2C(CC=C)N1 (centres undefined),8
O=C(NCc1cccs1)c1nc(-c2cccs2)no1,-2
O=C1CCCC(O)=C1N=Nc1ccc2ncsc2c1,14
Cc1c(C)c2ccc(OS(C)(=O)=O)cc2oc1=O,19
Cc1ccccc1NC(=O)CSC1=NCCN1,16

# More results:
SMILES,Biofilm kill mix
Cc1cccc(-n2c(SCC(=O)NC3CCCC3)nnc2-c2ccoc2C)c1,16
CC(C)CC(COCc1ccc(C(F)(F)F)cc1)N1CCN(C(=O)c2ccc(C(F)(F)F)cc2)CCC1=O (centres undefined),12
O=C(COc1cccnc1[N+](=O)[O-])NCCc1ccc(F)cc1,-30
Cc1ccc2c(c1)C(O)(CC(=O)/C=C/C=C/c1ccccc1)C(=O)N2 (centres undefined),-12
Cc1ccc(Cn2c(SCC(=O)N3CC(=O)Nc4ccccc43)nc3ccccc3c2=O)cc1,5
COc1ccc(CCN=C(C)C2=C(O)C(c3ccccc3)OC2=O)cc1OC (centres undefined),16
O=C(NC1CCCCC1)C(c1cccs1)N(CCCN1CCOCC1)C(=O)c1ccc(-c2ccccc2)[nH]1 (centres undefined),23
CN1CCOCCOCCOCCN(C)C1=S,14
CCOC(=O)N1CCN(C(=O)CSc2nc(C)nc3c2c(=O)n(C)c(=O)n3C)CC1,14
O=C(c1ccc(COc2ccccc2Br)o1)N1N=C(C(F)F)CC1(O)C(F)F (centres undefined),14
CN(C)S(=O)(=O)c1cccc(-c2nnc(SCCNCCO)n2-c2ccc(F)cc2)c1,-7
COc1ccc(S(=O)(=O)N2CCC(O)(c3ccc(Cl)cc3)CC2)cc1OC,9
COc1cc(/C=N/NC(=O)c2cc(-c3cccs3)nc3ccccc23)ccc1O,8
Cc1ccc2nc(-c3ccc(NC(=O)CSCC(=O)O)cc3)sc2c1,20
O=C(CN1CCCCCCC1)NC(=O)NC1CCCCC1,-1
COC(=O)NC(NC(=S)Nc1ccccc1OC)C(Cl)(Cl)Cl (centres undefined),19
CC1C(=O)O[C@@H]2C[C@@H](C)[C@@H]3CCC(=O)[C@@]3(C)[C@@H](O)[C@H]12 (some centres undefined),13
COc1ccc(OC)c(S(=O)(=O)Nc2ccc(O)c3ccccc23)c1,13
COC(=O)c1cc(O)cc(OC)c1C(=O)c1c(O)cc(C)cc1O,19
Cc1nn(C)c(Cl)c1C(=O)NCC(=O)NCc1ccccc1,4
O=C(N/N=C\c1cc([N+](=O)[O-])ccc1N1CCCC1)c1ccccn1,15
CCOc1ccc(-c2nc3scc(-c4cccs4)c3c(=O)[nH]2)cc1,9
Cc1[nH]c2ccccc2c1C(=O)CN1C(=O)NC2(CC(C)CC(C)(C)C2)C1=O (centres undefined),8
Cc1cc(C(=O)c2cnc(/N=C/N(C)C)s2)c(F)cc1Cl,12
Cc1cc(C(=O)CSc2nnnn2C)c(C)n1C1CC1,14
SMILES,Biofilm kill mix
CS/C(=C(/C#N)S(=O)(=O)c1ccc(Cl)cc1)N1CCOCC1,-2
Cc1ccc(-c2ccc(SCC(=O)NCC3CCCO3)nn2)cc1 (centres undefined),23
Nc1c([N+](=O)[O-])cnnc1-c1ccccc1,14
O=C(NCCCO)/C(=C/c1ccco1)NC(=O)c1ccc(Br)o1,11
COc1cc2c(cc1C=O)OC(C)C2 (centres undefined),14
c1ccc(OCc2nc3c4c(ncn3n2)-c2ccccc2CC42CCCC2)cc1,21
COc1ccc(/C=N/NC(=O)c2ccc3c(c2)OCCO3)cc1[N+](=O)[O-],-5
Cc1oc(CC(C)C)cc1C(=O)NCCCC(=O)O,15
O=C(NCc1ccccc1)c1ccc(-c2ccccc2C(F)(F)F)o1,1
CCC(C)(C)C1CCc2c(sc(NC(=O)c3ccccc3C(=O)O)c2C#N)C1 (centres undefined),16
CS(=O)(=O)N1CCn2c1nc1ccccc12,5
COc1ccc(C(=O)OCC(=O)NC(=O)NC2CCCC2)c(OC)c1,12
O=C(NNS(=O)(=O)c1ccc(F)c(Cl)c1)c1cccc(S(=O)(=O)N2CCOCC2)c1,21
O=C(NCCCN1CCCC1=O)c1ccc2c(c1)ncn2C1CCCCC1,11
Cc1cc(C(=O)CSc2nnnn2-c2ccccc2)c(C)n1-c1ccc2c(c1)OCO2,14
CCN(CC)c1ccc(/C=N/OC(C)C(=O)Nc2ccc(C)cc2)cc1 (centres undefined),7
Cn1cc(C=C2C(=O)OC3(CCCCC3)OC2=O)c2ccccc21,4
COc1ccc(N(C(=O)/C=C/c2ccc(OC)c(OC)c2)C2=CC3CCC(C2)N3C)cc1 (centres undefined),15
CN1CCN(NC(=O)c2cccc(S(=O)(=O)N3CCCCCC3)c2)CC1,11
CCc1ccc(NC(=O)C2CCCN2S(=O)(=O)c2ccc3c(c2)n(C)c(=O)c(=O)n3C)cc1 (centres undefined),18
CC(/C=N/NC(=O)c1cc(-c2ccccc2)nc2ccccc12)=C\c1ccco1,18
N=c1c2c(-c3ccccc3)c(-c3ccccc3)n(Cc3ccco3)c2ncn1CCCN1CCOCC1,9
CCC(OC(=O)c1cccs1)C(=O)NCc1ccc(C)cc1 (centres undefined),29
O=C(NC(=O)c1c(F)cccc1F)Nc1ccccc1SC(F)F,16
O=C(CN1CCN(Cc2ccccc2)CC1)Nc1cccc(S(=O)(=O)N2CCCCCC2)c1,2

# Source: PubChem BioAssay (PCMD)
